LASV entry inh: blocks Lassa virus binding to or entry into cells. Lassa virus pseudotype entry inhibition, cell reporter; control for the full effect not named in the record. Potency, µM (doses to about 37.9 µM), for the others: top-dose activity change, negative = inhibition, hits mostly inhibitors. actives 1.2% (n = 300,000). AID 540256; active means well fitted inhibition curve with a large enough effect; inconclusive means small, poorly fitted or top-dose-only effect, or effect the other way; inactive means flat fitted curve, though single readings scatter; tested in HEK293 cells; further: nearly all actives have a fitted effect of over 50% in size; luciferase read-out
Marburg entry inh: blocks Marburg virus binding to or entry into cells | Marburg virus pseudotyped entry inhibition, cell reporter; control for the full effect not named in the record; about a third of the inactives were read at about 46 µM | Potency, µM (doses to about 37.8 µM), for the others: at the top dose activity change, negative = inhibition, usual class: inhibitors | actives 1.8% (n = 300,000); active = well fitted inhibition curve with a large enough effect; inconclusive = small, poorly fitted or top-dose-only effect, or effect the other way; inactive = flat fitted curve, though single readings scatter; tested in HEK293 cells; about a fifth of its hits are not listed in these tables; further: luciferase read-out
StopGo reporter: lowers the luciferase signal of an FMDV 2A StopGo reporter; human cells with a luciferase reporter of 2A StopGo recoding; control for the full effect not named in the record; Potency, µM (titrated, usually from 57.9 µM), without a hit: at the highest dose signal change, negative = less light; actives 1.2% (n = 410,000); AID 1159524; active = well fitted falling curve with a large enough effect; inconclusive = small, poorly fitted or top-dose-only effect; inactive = no such curve, though single readings can be large or run the other way; tested in HEK293T cells; further: nearly all actives have a fitted effect of over 45% in size; luciferase light after 4 h
* marks the source's active call; other numbers are inactive results; u = inconclusive; x = no result given; & = joins results of further samples; [ ] = another dose, or the depositor's remark. On the % scale 0 is the no-effect control and ±100 the full control effect; potency means the concentration at half of the fitted maximal effect.

SMILES	LASV entry inh	Marburg entry inh	StopGo reporter
CCOC(=O)NN=C1C[C@@H](O)[C@@H](O)[C@@H]2[C@H]3C(=O)N(c4ccc(F)cc4F)C(=O)[C@@H]3CC[C@H]12	u	-21%[14.2 µM]	x
C=CC[C@@]1(C(=O)OC)C=C[C@@H](C)[C@H](c2ccccc2Br)N1C(=O)C(F)(F)F	2%[14.3 µM]	-11%[14.2 µM]	x
COc1cccc([C@@H]2Oc3ccc(Br)cc3C(=O)[C@@H]2O)c1	u	u	x
CCCCCCCc1cc2ccccc2c2c(C(=O)OC)c(C(=O)OC)c(C(=O)OC)n12	u	18%[14.2 µM]	x
C=CCCN1C=C(C(=O)OCC)C(c2ccccc2)NC1=O (stereo not given)	u	u	x
CCCC[N+]1(C)C2CC(OC(=O)[C@H](CO)c3ccccc3)CC1C1OC12 (stereo not given in full)	11%	21%	x
O=C(C=Cc1ccccc1)N1CCC[C@H]1CO	u	u	x
C=C(C)C(O)C=Cc1ccc(C(F)(F)F)cc1 (stereo not given)	u	u	x
O=C(NN=C1C[C@@H](O)[C@H](O)[C@H]2[C@@H]3C(=O)N(C[C@@H]4CCCO4)C(=O)[C@@H]3CC[C@@H]12)OCc1ccccc1	u	-5%[14.2 µM]	x
O=C(O)CCC/C=C\C[C@@H]1[C@@H](/C=C/[C@H](O)C2Cc3ccccc3C2)[C@@H](F)C[C@@H]1O	u	-9%	x
CC(=O)OC[C@H]1O[C@H](C#Cc2ccc(C)cc2C)C=C[C@H]1OC(C)=O	-33%[14.3 µM]	-2%[14.2 µM]	x
COC(=O)C1=C(C)N(Cc2ccccc2)C(=NCC(C)C)NC1c1cccc(F)c1 (stereo not given)	u	20%[14.2 µM]	x
COc1cc2c(c(OC)c1OC)C1(c3ccccc3)CCCCCC1[C@@H]2NC(=O)C(F)(F)F (stereo not given in full)	u	-15%[14.2 µM]	x
Cc1ccc(S(=O)(=O)n2c3ccccc3c3nnc(C(=O)c4ccccc4)nc32)cc1	u	u	x
CC1=C[C@@H](COCc2ccccc2)O[C@@]2(C1)C(=O)N(Cc1ccc(Br)cc1)c1ccccc12	u	4%[14.2 µM]	x
COC(=O)N[C@@H](c1ccco1)C(C(C)=O)C(=O)OC (stereo not given in full)	u	-27%[14.2 µM]	x
COC(=O)C=C[C@H]1c2ccccc2[C@@H](OC)[C@@H]1C	u	-4%&16%[14.2 µM]	x
C[C@@H](ON=C1[C@H]2CCn3c(=O)n(-c4ccccc4)c(=O)n3[C@@H]2[C@H](O)[C@@H]2O[C@H]12)c1cn([C@H](CO)Cc2ccccc2)nn1	u	-23%[14.2 µM]	x
C[C@H]1CC[C@H]2C(=O)N(Cc3cccc([N+](=O)[O-])c3)C[C@H](O)CN2[C@H]1c1cccc(Br)c1	u	-16%[14.2 µM]	x
Oc1ccc(/C=C/c2ccc(/C=C/c3ccc(O)cc3)c(Br)c2)cc1	u	8%	x
CC(CCC(=O)OC[C@H]1O[C@H](C#Cc2ccccc2)C=C[C@H]1Oc1ccc(C)cc1)=NO[C@@H](C)c1cn([C@H](CO)Cc2ccccc2)nn1	u	9%[14.2 µM]	x
CC(=O)C1=C(C)N(Cc2ccccc2)C(=O)NC1CCc1ccccc1 (stereo not given)	17%&-21%[14.3 µM]	u	x
CCOC(=O)[C@]12C[C@]3(OC)CCN(C(=O)N[C@@H]1c1ccccc1)[C@@H]32	-19%[14.3 µM]	10%[14.2 µM]	x
CN1c2ccccc2[C@@]2(O)C(=O)[C@@]1(C)[C@@H]1CCC=C[C@H]12	u	10%[14.2 µM]	x
COC(=O)C1=C(C)N(Cc2ccccc2)C(=NCC(C)C)NC1c1cccc(C(F)(F)F)c1 (stereo not given)	u	9%[14.2 µM]	x

Further entries
SMILES	LASV entry inh	Marburg entry inh	StopGo reporter
O=C1NC(=O)/C(=C/c2ccc(-c3ccc(F)cc3O)o2)S1	1%	6%	x
C[C@H]1CC[C@H]2C(=O)N(Cc3ccccc3)C[C@@H](O)CN2[C@H]1c1cccc(Br)c1	u	10%[14.2 µM]	x
CCCCc1nc2c(c3c1C[C@H](C)OC3)CN(C(=O)NCc1ccco1)CC2	11%[14.3 µM]	u	x
N[C@@H](Cn1ccc(=O)[nH]c1=O)C(=O)O	u	3%	x
COC(=O)C[C@H]1c2ccccc2C2=C(C[C@@H](C)[C@H]3C(=O)N(c4ccccc4)C(=O)[C@@H]23)N1C(=O)OC	u	-16%&-4%[14.2 µM]	x
CC12C=C(C=Cc3ccc(F)cc3)C(C)(C1)C(c1ccc(F)cc1)CC2=O (stereo not given)	-5%[14.3 µM]	9%[14.2 µM]	x
CC1=C[C@@H](COCc2ccccc2)O[C@@]2(C1)C(=O)Nc1cccc(Br)c12	u	9%&5%[14.2 µM]	x
C[C@H](ON=C1[C@H]2CCn3c(=O)n(-c4ccccc4)c(=O)n3[C@@H]2[C@H](O)[C@@H]2O[C@H]12)c1cn([C@H](CO)Cc2ccccc2)nn1	u	7%[14.2 µM]	x
COc1ccc(COC(=O)NN=C2C[C@@H](O)[C@@H](O)[C@@H]3[C@H]4C(=O)N([C@@H](C)c5ccccc5)C(=O)[C@@H]4CC[C@H]23)cc1	u	-1%[14.2 µM]	x
C=CCOC(=O)N[C@H](C(C(=O)OC)=C(C)NCc1ccccc1)c1ccc(C)cc1	u	u	x
COC1=C(C(=O)c2ccccc2)C(=O)[C@@]2(CC=C(C)C)C[C@@H]([S+](=O)([O-])c3ccccc3)C(C)(C)[C@@]1(CC=C(C)C)C2=O	u	-17%[14.2 µM]	x
COc1ccc(-c2nc3c(c4c2C[C@H](c2ccccc2)OC4)CN(C(=O)NCc2ccco2)CC3)c(C)c1	-14%[14.3 µM]	-29%&-29%&-29%[14.2 µM]	x
Cc1c(C(=O)NC(C)(C)C)sc2ncnc(NCCN(C)C)c12	x	x	-8%
Cc1cc2c(c(-c3cnccn3)c1)OC(CNC(=O)c1ccc(-n3nc(C)cc3C)cc1)C2 (stereo not given)	x	x	-10%
O=C(NCC1Cc2cccc(-c3nccs3)c2O1)c1ccnc(Cl)c1 (stereo not given)	x	x	10%
Cc1cnc(CNC(=O)c2c3n(c(C)cc2=O)-c2ccccc2SC(c2ccsc2)C3)cn1 (stereo not given)	x	x	-15%
Cc1cccc(CNC(=O)c2cnn(-c3ncc(C)c(-c4cccs4)n3)c2C2CC2)n1	x	x	0%
Cc1nc(C)n(CC(=O)NCC2Cc3cc(-c4cccc(OC(F)(F)F)c4)ccc3O2)n1 (stereo not given)	x	x	-21%
CCN(CC)C1CCN(C(=O)c2cnn(-c3nccc(-c4ccccc4OC)n3)c2-c2ccco2)C1 (stereo not given)	x	x	6%
COc1ccccc1-c1ccnc(-n2ncc(C(=O)N(C)CCc3ccccn3)c2C)n1	x	x	19%
COC(=O)c1c(OCc2cccnc2)cc(=O)n2c1CCN(C(=O)c1cccc(N(C)C)c1)CC2	x	x	9%
CC[C@H](C)[C@H](NC(=O)[C@H](CCCN=C(N)N)NC(=O)[C@H](CCCN=C(N)N)NC(=O)[C@H](CC(C)C)NC(=O)[C@H](Cc1ccccc1)NC(=O)CNC(=O)CNC(=O)[C@@H](N)Cc1ccc(O)cc1)C(=O)O	x	x	4%[6.7 µM]
Cc1c(C(=O)N(CCO)C(C)C)cnn1-c1ncc2c(n1)-c1ccccc1CCC2	x	x	9%
Cc1cccc(CN2C(=O)[C@@H]3Cc4c([nH]c5ccccc45)C(C)(C)N3C2=O)c1	x	x	u
COC(=O)c1cc(CNC(=O)c2ccccc2F)cc(NC(=O)c2ccccc2OC)c1	x	x	u

Nothing new here: an excerpt of the list.
SMILES	LASV entry inh	Marburg entry inh	StopGo reporter
O=C1NC(=O)/C(=C/c2ccc(-c3ccc(F)cc3O)o2)S1	1%	6%	x
C[C@H]1CC[C@H]2C(=O)N(Cc3ccccc3)C[C@@H](O)CN2[C@H]1c1cccc(Br)c1	u	10%[14.2 µM]	x
CCCCc1nc2c(c3c1C[C@H](C)OC3)CN(C(=O)NCc1ccco1)CC2	11%[14.3 µM]	u	x
N[C@@H](Cn1ccc(=O)[nH]c1=O)C(=O)O	u	3%	x
COC(=O)C[C@H]1c2ccccc2C2=C(C[C@@H](C)[C@H]3C(=O)N(c4ccccc4)C(=O)[C@@H]23)N1C(=O)OC	u	-16%&-4%[14.2 µM]	x
CC12C=C(C=Cc3ccc(F)cc3)C(C)(C1)C(c1ccc(F)cc1)CC2=O (stereo not given)	-5%[14.3 µM]	9%[14.2 µM]	x
CC1=C[C@@H](COCc2ccccc2)O[C@@]2(C1)C(=O)Nc1cccc(Br)c12	u	9%&5%[14.2 µM]	x
C[C@H](ON=C1[C@H]2CCn3c(=O)n(-c4ccccc4)c(=O)n3[C@@H]2[C@H](O)[C@@H]2O[C@H]12)c1cn([C@H](CO)Cc2ccccc2)nn1	u	7%[14.2 µM]	x
COc1ccc(COC(=O)NN=C2C[C@@H](O)[C@@H](O)[C@@H]3[C@H]4C(=O)N([C@@H](C)c5ccccc5)C(=O)[C@@H]4CC[C@H]23)cc1	u	-1%[14.2 µM]	x
C=CCOC(=O)N[C@H](C(C(=O)OC)=C(C)NCc1ccccc1)c1ccc(C)cc1	u	u	x
COC1=C(C(=O)c2ccccc2)C(=O)[C@@]2(CC=C(C)C)C[C@@H]([S+](=O)([O-])c3ccccc3)C(C)(C)[C@@]1(CC=C(C)C)C2=O	u	-17%[14.2 µM]	x
COc1ccc(-c2nc3c(c4c2C[C@H](c2ccccc2)OC4)CN(C(=O)NCc2ccco2)CC3)c(C)c1	-14%[14.3 µM]	-29%&-29%&-29%[14.2 µM]	x
Cc1c(C(=O)NC(C)(C)C)sc2ncnc(NCCN(C)C)c12	x	x	-8%
Cc1cc2c(c(-c3cnccn3)c1)OC(CNC(=O)c1ccc(-n3nc(C)cc3C)cc1)C2 (stereo not given)	x	x	-10%
O=C(NCC1Cc2cccc(-c3nccs3)c2O1)c1ccnc(Cl)c1 (stereo not given)	x	x	10%
Cc1cnc(CNC(=O)c2c3n(c(C)cc2=O)-c2ccccc2SC(c2ccsc2)C3)cn1 (stereo not given)	x	x	-15%
Cc1cccc(CNC(=O)c2cnn(-c3ncc(C)c(-c4cccs4)n3)c2C2CC2)n1	x	x	0%
Cc1nc(C)n(CC(=O)NCC2Cc3cc(-c4cccc(OC(F)(F)F)c4)ccc3O2)n1 (stereo not given)	x	x	-21%
CCN(CC)C1CCN(C(=O)c2cnn(-c3nccc(-c4ccccc4OC)n3)c2-c2ccco2)C1 (stereo not given)	x	x	6%
COc1ccccc1-c1ccnc(-n2ncc(C(=O)N(C)CCc3ccccn3)c2C)n1	x	x	19%

Later entries.
SMILES	LASV entry inh	Marburg entry inh	StopGo reporter
CC(=O)c1ccc(-c2cc(F)cc3c2OC(CNC(=O)C(C)N2CCOCC2)C3)s1 (stereo not given)	x	x	-15%
O=C(NCc1nnc2n1CCN(Cc1cc3c(cc1Cl)OCO3)CC2)c1cccc(F)c1	x	x	-10%
Cc1ccc2occ(CN3CCOc4ccc(C(C)(O)COc5ccccc5)cc4C3)c(=O)c2c1 (stereo not given)	x	x	-21%
COc1cccc(CNC(=O)c2c(OC)cc(=O)n3c2CCN(C(=O)c2cc(C)ccc2C)CC3)c1	x	x	18%
O=C1CC2(CCCC2)CC(=O)N1CCCCNCC1COc2ccccc2O1 (stereo not given)	x	x	u
COc1cc(=O)n2c(c1C(=O)NC(C)c1ccco1)CCN(Cc1cc(C)cc(C)c1)CC2 (stereo not given)	x	x	-10%
Cc1ccccc1NS(=O)(=O)c1ccc2c(c1)CCC(=O)N2	x	x	-15%
CC1(C)S[C@@H]2[C@H](N3C(=O)C(c4ccccc4)NC3(C)C)C(=O)N2[C@H]1C(=O)O (stereo not given in full)	x	x	27%
CCn1c(-c2cccc(OC)c2)nc2cc(NC(C)=O)cc(C(=O)N(C)CC3COCCO3)c21 (stereo not given)	x	x	2%
Cc1ccc(CN2C(=O)[C@H]3Cc4c([nH]c5ccccc45)C(C)(C)N3C2=O)cc1	x	x	u
CSCC[C@H](NC(=O)[C@H](Cc1ccccc1)NC(=O)CNC(=O)CNC(=O)[C@@H](N)Cc1ccc(O)cc1)C(=O)O	x	x	-16%[6.7 µM]
Cc1cccc(CNC(=O)c2c3n(c(C)cc2=O)-c2ccccc2SC(c2ccsc2)C3)n1 (stereo not given)	x	x	-15%
C/C(=C\c1ccco1)CN1CCOc2ccc(CN3CCC(Oc4cccnc4)CC3)cc2C1	x	x	-17%
N#Cc1cc2c(OCC(O)CN3CCN(C(c4ccccc4)c4ccccc4)CC3)cccc2[nH]1 (stereo not given)	x	x	-3%&-29%
COCCN1CCN(C(=O)c2cnn(-c3nccc(-c4ccco4)n3)c2C(C)C)CC1	x	x	2%
CN1CCN(c2ccc(Nc3c4ccccc4nc4ccccc34)cc2)CC1	x	x	-26%
O=C1C(Nc2ccccc2)=CC(=O)c2ncccc21	x	x	u
O=C(c1cnsn1)N1CCOc2ccc(CN3CCOCC3)cc2C1	x	x	18%
Cc1oc(-c2ccccc2NC(=O)c2ccccn2)nc1CNC(=O)c1cccc(C#CC(C)(C)O)c1	x	x	28%
CC(NC(=O)c1cc(F)ccc1F)c1nnc2n1CCN(Cc1ccc(-c3ccccc3)cc1)CC2 (stereo not given)	x	x	u

These rows are one share of the data. The share of hits here may be higher or lower than overall.
